USP1-UAF1 inh: USP1/UAF1 (human) deubiquitinase inhibition | recombinant USP1/UAF1, Ub-Rhodamine cleavage fluorescence | Potency, µM (series often up to 57.1 µM), for inactives: at the highest dose activity change, negative = inhibition, hits mostly inhibitors | 390,000 tested, 0.23% active; further: on the % scale 0 is the no-effect control and ±100 the full control effect; nearly all actives have a fitted effect of over 60% in size; inactives centre near -12
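USP1/UAF1 complex at 1 nM was preincubated with compound for 15 min at room temperature, then Ub-Rho substrate (150nM final) was added. Fluorescence (480/540 nm) was read kinetically, 6 reads every 60 seconds.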
RGS4 inhibitor: blocks human RGS4-accelerated GTP hydrolysis; P49798; Potency, µM (top dose mostly 114 µM), inactives show at the highest dose activity change, negative = inhibition, usual class: inhibitors; AID 504845; Transcreener GDP fluorescence polarization, RGS4-accelerated GTP hydrolysis; 390,000 tested, 0.039% active; further: on the % scale 0 is the no-effect control and ±100 the full control effect; nearly all actives have a fitted effect of over 75% in size; some results filed as inactive show a strong effect at the top dose
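MLSMR compounds (23 nl, pin-transferred) preincubated 10 min at room temperature with a 500nM (2x) first reagent, then RGS4 at 900nM (2x) plus Transcreener GDP mix added; fluorescence polarization (620/688 nm) read before and after 90 min at 30 °C.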
RXFP1 agonist: activates the human relaxin receptor RXFP1; HEK293T-RXFP1 cAMP TR-FRET, 30 min; response scale: percent of porcine relaxin response, buffer zero; Potency, µM (series often up to 57.5 µM), for inactives: top-dose activation, most hits filed as activators; 370,000 tested, 0.3% active; AID 2676; further: on the % scale 0 is the no-effect control and ±100 the full control effect; nearly all actives have a fitted effect of over 60% in size; many of its hits are not listed in these tables
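Agonist response is measured as cAMP accumulation in an RXFP1-transfected HEK293T line under PDE4 inhibition. Values are scaled between buffer-only and 29 nM porcine relaxin, and EC50s come from standard Hill equation fits.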
mIDH1 inhibitor: human IDH1 R132H inhibition | AID 602179 | O75874 | IDH1-R132H enzyme, NADPH consumption, diaphorase/resazurin fluorescence | Potency, µM (series often up to 76.6 µM), for the others: at the highest dose activity change, negative = inhibition, hits mostly inhibitors | 390,000 tested, 0.093% active; further: on the % scale 0 is the no-effect control and ±100 the full control effect; nearly all actives have a fitted effect of over 65% in size
Target sequence (O75874 whole entry R132H, stated change not applied): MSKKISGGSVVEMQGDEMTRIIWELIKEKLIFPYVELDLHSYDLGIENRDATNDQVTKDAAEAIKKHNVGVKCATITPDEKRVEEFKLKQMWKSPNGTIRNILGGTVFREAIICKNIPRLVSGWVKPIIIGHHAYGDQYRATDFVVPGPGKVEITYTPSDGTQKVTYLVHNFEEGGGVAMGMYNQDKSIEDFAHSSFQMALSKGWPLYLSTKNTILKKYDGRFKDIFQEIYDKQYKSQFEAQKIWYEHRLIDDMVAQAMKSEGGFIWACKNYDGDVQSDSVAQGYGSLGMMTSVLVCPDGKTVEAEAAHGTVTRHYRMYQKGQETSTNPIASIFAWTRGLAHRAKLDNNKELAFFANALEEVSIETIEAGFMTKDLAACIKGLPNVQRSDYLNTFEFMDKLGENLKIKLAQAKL
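IDH1-R132H (0.5 ug/mL) preincubated 30 min with compound, then NADPH (0.016 mM) and alpha-KG (2 mM) added; 80 min at RT, pH 7.5. Remaining NADPH coupled via diaphorase/resazurin to fluorescence (540/590 nm); concentration-response curves normalized to no-enzyme control.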
Vif-A3G inh: blocks the Vif interaction with human APOBEC3G; 410,000 tested, 0.076% active; Q9HC16; AID 602310; Potency, µM (titrated, usually from 46.1 µM), without a hit: at the highest dose activity, negative = active, hits mostly inhibitors; HeLa A3G-eYFP + Vif (tagged APOBEC3G with the HIV-1 protein that degrades it), YFP fluorescence, overnight;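 further: on the % scale 0 is the no-effect control and ±100 the full control effect; nearly all actives have a fitted effect of over 60% in size; hits raise eYFP signal because A3G escapes Vif-driven loss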
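HeLa cells stably expressing Vif and C-terminally eYFP-tagged A3G, seeded overnight at 37 deg C, then exposed to compound by pintool overnight at 37 deg C. Rise in yellow fluorescence (Ex 488/Em 500-530, Acumen) marks blocked Vif-driven A3G degradation.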
TrxR1 substrate: rat thioredoxin reductase 1 substrate activity; O89049; purified TrxR1 substrate turnover, NADPH consumption readout; Potency, µM (highest dose often 114 µM), for inactives: top-dose activity change, negative = substrate turnover; 390,000 tested, 0.01% active; AID 588456; further: on the % scale 0 is the no-effect control and ±100 the full control effect; nearly all actives have a fitted effect of over 50% in size
Target sequence (O89049 whole entry, looked up): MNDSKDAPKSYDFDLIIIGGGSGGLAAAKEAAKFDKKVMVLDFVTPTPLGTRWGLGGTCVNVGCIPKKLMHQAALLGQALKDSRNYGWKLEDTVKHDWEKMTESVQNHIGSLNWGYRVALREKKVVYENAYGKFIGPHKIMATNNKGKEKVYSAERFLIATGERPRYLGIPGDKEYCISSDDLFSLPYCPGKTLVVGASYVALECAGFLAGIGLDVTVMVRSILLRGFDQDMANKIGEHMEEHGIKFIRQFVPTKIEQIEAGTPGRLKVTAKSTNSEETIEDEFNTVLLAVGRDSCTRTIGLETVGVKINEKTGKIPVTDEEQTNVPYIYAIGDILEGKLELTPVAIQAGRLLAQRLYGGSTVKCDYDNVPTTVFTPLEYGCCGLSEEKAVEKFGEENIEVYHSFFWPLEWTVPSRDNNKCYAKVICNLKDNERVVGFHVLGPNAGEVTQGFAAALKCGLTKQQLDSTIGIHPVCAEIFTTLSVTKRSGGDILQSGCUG
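Rat TrxR1, dispensed at 90 nM, was prereduced with 400 uM NADPH (final) for 5 min at ~22 deg C, then incubated with compound 15 min before 400 uM selenite. A first-read NADPH fluorescence drop versus no-compound background flagged substrates.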
Vif-APOBEC3F blk: Vif-A3F binding inhibition; HeLa A3F-eYFP + Vif (tagged APOBEC3F with the HIV-1 protein that degrades it), YFP fluorescence increase; Potency, µM (doses to about 46.1 µM), inactives show at the highest dose activity, negative = active; 390,000 tested, 0.2% active; AID 602313; further: % of control where 0% means no effect; nearly all actives have a fitted effect of over 65% in size
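HeLa cells stably expressing A3F-eYFP plus Vif, plated and incubated overnight at 37 deg C, then exposed to compounds overnight at 37 deg C. Blocked degradation read as raised yellow fluorescence (Ex 488/Em 500-530).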
TrxR1 inh: blocks rat thioredoxin reductase 1 | O89049 | AID 588453 | Potency, µM (highest dose often 114 µM), without a hit: at the highest dose activity change, negative = inhibition, actives largely listed as inhibitors | recombinant rTrxR1, NADPH fluorescence consumption, selenite substrate | 390,000 tested, 1% active; further: on the % scale 0 is the no-effect control and ±100 the full control effect; nearly all actives have a fitted effect of over 65% in size
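Rat TrxR1 (90 nM in the dispensed reagent) was pre-reduced with 400 uM NADPH for 5 min at room temperature, then incubated with compound for 15 min. After 400 uM selenite was added, NADPH fluorescence (Ex 340/Em 450 nm) was followed for 8 min.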
An asterisk follows results filed as active; u = inconclusive; x = no result given; & = joins results of further samples; [ ] = remark or other dose. The call rests on the fitted dose curve; in most records, active means well fitted curve in the direction sought with a large enough effect; inconclusive means small, poorly fitted or top-dose-only effect, or another doubt; inactive means no such curve, though single readings can be large; an effect the other way counts as inactive or inconclusive. Potency means the concentration at half of the fitted maximal effect. A portion of the library. The share of hits here may be higher or lower than overall.

compound	USP1-UAF1 inh	RGS4 inhibitor	RXFP1 agonist	mIDH1 inhibitor	Vif-A3G inh	TrxR1 substrate	Vif-APOBEC3F blk	TrxR1 inh
Cc1ccc(C)c(S(=O)(=O)N2CCN(C(=O)[C@@H](NC(=O)c3ccc(F)cc3)C(C)C)CC2)c1	-11%	18%	0.9%	-4%	1%	-5%	-6%	21%
CCOc1cc(C)c(Cl)cc1S(=O)(=O)N(C)C	-2%	17%	2.2%	-1%	1%	6%[57.1 µM]	-18%	5%[57.1 µM]
COc1ccc(OC)c(S(=O)(=O)N2CCN(c3ccc(F)cc3)CC2)c1	3%	19%	0.4%	-1%	0%	-12%	-7%	-7%
CCOc1ccccc1C(=O)N(Cc1cccs1)C1CCS(=O)(=O)C1 (stereo not drawn)	-16%	-23%	-1.8%	7%	-2%	-11%[57.1 µM]	-2%	2%[57.1 µM]
COc1ccc2[nH]c3c(C)c4ccncc4c(C)c3c2c1	-13%	-18%	0.2%	-21%	-4%	3%	u	5%
Cc1oc(C(=O)Nc2ccc(O)cc2)cc1COc1ccccc1	-20%	-27%[11.4 µM]	0.7%	4%	-11%	-5%	-3%	-11%
Cc1ccc(CNC(=O)CNC(=O)c2c(C)nn(C)c2Cl)cc1	-25%	-13%	9.2%	7%	-3%	2%	-8%	13%
Cc1ccc(C(=S)N2CCCCCC2)cc1	-8%	-24%	5.2%	-1%	-1%	-4%	2%	3%[57.1 µM]
Cc1ccc(S(=O)(=O)Nc2nc(C)cc(NCCN)n2)cc1	-1%	30%	0.8%	-5%	-1%	9%	-6%	9%
COCCCNC(=O)CC(NS(=O)(=O)c1ccc(C)cc1)c1ccc(OC)cc1 (stereo not drawn)	7%	10%	-0.8%	1%	1%	6%	-6%	21%
COc1ccc(C(=O)O/N=C/c2ccc(S(=O)(=O)c3ccc(Cl)cc3)nc2)cc1	-6%	-1%	x	-3%	-1%	4%	-10%	-1%
COc1ccc(OC2C(=O)N(Cc3ccc4c(c3)OCO4)C2c2cccs2)cc1 (stereo not drawn)	-19%	1%	4.4%	1%	2%	-5%	-6%	2%
Cc1nc(C)c(-c2nnc(-c3cccc(S(=O)(=O)N(C)C)c3)o2)cc1C(=O)NN	u	-4%	-1.7%	-7%	0%	-10%	1%	10%[2.29 µM]
Nc1cc(Nc2ccc(Br)cc2)nc(N)n1	-11%	-50%	-2.4%	0%	-11%	3%	-19%	29%
CCCN(CCC)Cc1c(C(=O)N/N=C/c2ccoc2)nnn1-c1nonc1N	-19%	-5%	-3.1%	6%	-2%	-1%	1%	-4%
CCn1c2ccccc2c2cc(NC(=O)N3CCCCC3)ccc21	-23%	x	x	-3%	3%	x	0%	x
COc1ccc(C2C(=O)N(C3CCCCCC3)CC(=O)N2CCC2=CCCCC2)cc1 (stereo not drawn)	-4%	3%	-1.3%	11%	3%	-2%[57.1 µM]	5%	-20%[57.1 µM]
Cc1cccc2c1-c1sc(C(=O)NCCCN3CCc4ccccc4C3)cc1CO2	u	u	10%	8%	4%	x	3%	4%
O=C(COc1ccc(Cl)cc1)Nc1ccccc1CO	0%	12%	-0.7%	2%	-1%	2%[57.1 µM]	-8%	-2%
C[C@H](Cc1ccc(O)c(O)c1)[C@@H](C)Cc1ccc(O)c(O)c1	x	15µM*	x	x	-4%	8%[57.1 µM]	x	13µM*
COc1ccc(C(=O)N/C(=C\c2cccs2)c2nc3ccccc3[nH]2)cc1OC	-7%	-9%	3.7%	3%	-9%	-5%	-2%	-12%
CC(=O)Nc1cccc(NC(=O)CSc2nnc(Cc3cccn3C)n2-c2ccc(F)cc2)c1	-11%	-6%	0.1%	-2%	3%	-10%	-12%	2%
Cc1ccc(-c2nc3c(cnn3-c3ccccc3)c(=O)o2)cc1	-5%	21%	-1.2%	0%	-3%	14%	-6%	x
O=C(COc1ccccc1)NNC(=O)COc1ccc([N+](=O)[O-])cc1	-1%	u	3.6%	8%	0%	3%[57.1 µM]	-1%	9%[57.1 µM]
COCCN(CCOC)C(=O)CCn1c(=O)oc2ccccc21	-8%	20%	0.5%	-6%	0%	7%[57.1 µM]	9%	1%[57.1 µM]
CCSc1nnc(NC(=O)CSc2nnc(Cc3cccn3C)n2-c2ccc(C)cc2)s1	-20%	-40%	0.7%	2%	-5%	-1%	-2%	-9%
COc1cc(/C=C/C(=O)CC(=O)/C=C/c2ccc(O)c(OC)c2)ccc1O	u	-7%	5.3%	5%	u	-18%&-7%	u	u
CSc1ccc(S(=O)(=O)NCc2ccccc2Cl)cc1	-6%	-24%	-0.1%	4%	1%	-1%	9%	1%
O=C(CCNC(=O)c1ccccc1Cl)NN=Cc1ccco1	-12%	10%	x	5%	0%	10%[57.1 µM]	-2%	6%[57.1 µM]
CCN1CCC2(CC1)Oc1c(OC)cccc1C1CC(c3cccnc3)=NN12 (stereo not drawn)	-6%	13%	6.6%	-10%	-1%	5%	1%	12%

Structural class, the entries above with an NH in an aromatic ring
compound	USP1-UAF1 inh	RGS4 inhibitor	RXFP1 agonist	mIDH1 inhibitor	Vif-A3G inh	TrxR1 substrate	Vif-APOBEC3F blk	TrxR1 inh
COc1ccc2[nH]c3c(C)c4ccncc4c(C)c3c2c1	-13%	-18%	0.2%	-21%	-4%	3%	u	5%
COc1ccc(C(=O)N/C(=C\c2cccs2)c2nc3ccccc3[nH]2)cc1OC	-7%	-9%	3.7%	3%	-9%	-5%	-2%	-12%

One compound at a time, from the list above:
Entry for Cc1ccc(C(=S)N2CCCCCC2)cc1 → USP1-UAF1 inh: -8%; RGS4 inhibitor: -24%; RXFP1 agonist: 5.2%; mIDH1 inhibitor: -1%; Vif-A3G inh: -1%; TrxR1 substrate: -4%; Vif-APOBEC3F blk: 2%; TrxR1 inh: 3%[57.1 µM]
Entry for Nc1cc(Nc2ccc(Br)cc2)nc(N)n1 → USP1-UAF1 inh: -11%; RGS4 inhibitor: -50%; RXFP1 agonist: -2.4%; mIDH1 inhibitor: 0%; Vif-A3G inh: -11%; TrxR1 substrate: 3%; Vif-APOBEC3F blk: -19%; TrxR1 inh: 29%

Next part.
compound	USP1-UAF1 inh	RGS4 inhibitor	RXFP1 agonist	mIDH1 inhibitor	Vif-A3G inh	TrxR1 substrate	Vif-APOBEC3F blk	TrxR1 inh
COc1ccc(Oc2nc3c(c(=O)n(C)c(=O)n3C)n2Cc2ccccc2)cc1	-14%	-1%[11.4 µM]	1.9%	3%	2%	-5%[57.1 µM]	-9%	-7%
COc1ccc(C2c3c(C)nn(-c4ccccc4)c3NC(=O)N2c2ccccc2)cc1 (stereo not drawn)	-16%	5%	2.1%	-3%	10%	4%	-5%	20%
COCCNC(=O)CSc1nc2scc(-c3ccccc3)c2c(=O)[nH]1	-5%	-5%	5.8%	-1%	u	3%	-17%	-14%
CCCCn1c(N)c(N(CC)C(=O)c2ccc(-c3ccc(Cl)cc3)o2)c(=O)[nH]c1=O	-18%	-16%	1.5%	-13%	-4%	13%	-6%	-11%
CC(=O)c1ccc(NC(=O)C(C)OC(=O)C(C)Oc2cccc(C)c2)cc1 (stereo not drawn)	-21%	-18%	0.6%	0%	-1%	-2%	5%	1%
O=c1c(O)c(-c2ccccc2)oc2ccccc12	-18%	7%	x	-5%	0%	-5%	0%	-4%
CC(=O)Nc1cccc(C(=O)O)n1	8%	-9%	4.0%	3%	-3%	-5%[57.1 µM]	-15%	13%
Brc1cccc(OCCCNC2CCCC2)c1	-20%	-26%	1.5%	3%	1%	9%	-6%	20%
Cc1ccc(CNC(=O)C(NS(=O)(=O)c2cccc3nsnc23)C(C)C)cc1 (stereo not drawn)	0%	-4%[56.9 µM]	2.2%	-10%	3%	3%[57.1 µM]	3%	21%[57.1 µM]
COc1cccc(NC(=S)NCCC(c2ccccc2)c2ccccc2)c1	-17%	6%	-1.1%	2%	-11%	-6%[57.1 µM]	-5%	1%[57.1 µM]
Cc1ccc(C(=O)N/C(=C\c2ccc(Br)cc2)c2nc(=S)[nH][nH]2)cc1	-19%	-22%	-0.8%	0%	-6%	-3%	0%	-15%
CCC[C@@H]1C[C@@H](C(=O)NC(C(C)Cl)[C@H]2O[C@H](SC)[C@H](O)[C@@H](O)[C@H]2O)N(C)C1 (stereo partly drawn)	-21%	-25%	1.7%	0%	-3%	7%	7%	28%
Cc1ccc(OCCNC(=O)/C=C/c2ccc([N+](=O)[O-])cc2)cc1C	-17%	9%[11.4 µM]	0.8%	6%	0%	8%[57.1 µM]	5%	20%[57.1 µM]
Cc1ccc(C)c(N2CCN(C(=O)CCCN3C(=S)NC(C)(C)CC3C)CC2)c1 (stereo not drawn)	-3%	9%	-0.3%	13%	-1%	10%[57.1 µM]	u	4%[57.1 µM]
O=C(O)c1ccc(N=C2SCC(=O)N2Cc2ccccc2)cc1	-10%	-18%	-1.6%	5%	0%	-7%[57.1 µM]	-1%	16%
N#CC1=C(N)Oc2c(oc(CO)cc2=O)C12C(=O)Nc1ccc(Cl)cc12 (stereo not drawn)	-2%	34%	1.5%	4%	0%	-8%	1%	-2%
O=C(NC1CCCC1)c1cc(Cl)ccc1[N+](=O)[O-]	-13%	3%	0.3%	0%	1%	-5%	4%	-2%
COc1ccccc1NC(=O)Cc1csc(NC(=S)Nc2ccccc2)n1	-20%	-33%	-1.8%	-5%	-9%	-1%	-2%	u
COc1c(Cl)cnn(-c2ccc(C)cc2)c1=O	-6%	-19%	0.6%	6%	1%	-7%	-3%	-19%
Fc1ccc(-n2ncc3c(NCCC4=CCCCC4)ncnc32)cc1	u	-19%	8.4%	12%	-2%	7%[57.1 µM]	1%	24%[57.1 µM]

High-throughput results deposited in PubChem BioAssay by National Center for Advancing Translational Sciences (NCATS).
